# TRPML1 inh: blocks the human TRPML1 channel | activity change, negative = inhibition, % (test concentration not listed) | actives 0.02% (n = 390,000) | Q9GZU1 | TRPML1-inducible cells, Ca2+ dye fluorescence, FDSS; active compounds read low; inhibition of EC80 agonist-evoked calcium signal | AID 624415; in the data active means activity change below about -50%; inconclusive means about -30% to -50%; inactive means above about -30%;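 further: stimulus is agonist 54-4 at its EC80 concentration; on the % scale 0 is the no-effect control and ±100 the full control effect; compound concentration not given in the record; the text of the record puts the active cut at -80%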
#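 Tet-induced TRPML1-DL cells loaded with Ca8 no-wash calcium dye were read kinetically on FDSS. Compound addition was followed by EC80 agonist 54-4 (4 uM final); inhibition was read over 110 s.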
# D2 potentiator: potentiates the human D2 dopamine receptor allosterically. P14416. DiscoveRx D2 beta-arrestin cells, luminescence, 90 min; 100% = 57 uM dopamine signal. potentiation, % (test concentration not listed). actives 0.23% (n = 360,000); active = potentiation of 50% or more; inconclusive = 30% to 50%; inactive = 30% or less;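 further: compound concentration not given in the record; tested on top of an EC20 dose of dopamine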
#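 D2 cells co-treated with compound plus 50 nM dopamine (EC20) for 90 min at 37 deg C to detect potentiation. Beta-arrestin recruitment was read as enzyme-fragment luminescence after 1 h at ambient temperature. Full response was set by 57 uM dopamine.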
# TRPV1 PAM: potentiators of human vanilloid receptor 1 (TRPV1); Q8NER1; TRPV1-expressing cells, Fluo-8 calcium influx, capsaicin EC20 potentiation; host cell line not named in the record; control for the full effect not named in the record; potentiation, % at 8.33 µM; actives 0.02% (n = 320,000); active means potentiation above 80%; inconclusive means 30% to 80%; inactive means below 30%; further: 0% is about no effect
#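 Cells expressing TRPV1 were dye-loaded with Fluo-8 and read kinetically: 10 s baseline, 3 min after compound (agonist portion), then 2 min after EC20 capsaicin (allosteric enhancer portion). Calcium-bound dye fluorescence at 480/520 nm.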
# CtBP-E1A blk: CtBP/E1A binding inhibition | AlphaScreen GST-E1A/His-CtBP binding, 1536-well; active compounds read low; control for the full effect not named in the record | activity change, % (test concentration not listed) | actives 0.49% (n = 340,000) | AID 651724; in the data active means activity change below about -65%; inconclusive means about -30% to -65%; inactive means above about -30%; further: on the % scale 0 is the no-effect control and ±100 the full control effect
#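 Steps: dispense buffer (Tris pH 8.0, NaCl 300 mM, TCEP 1 mM, BSA, Tween 20); add 5X protein mix (GST-E1A, His-CtBP, 125 nM each); pin 23 nL compound; 2 h at 37 °C, dark; add 5X beads (50 ug/mL); 1 h; read.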
# Six1-Eya2 blk: Six1/Eya2 interaction inhibition | AlphaScreen GST-Six1/His-Eya2 binding, biochemical; active compounds read low; control for the full effect not named in the record | actives 0.56% (n = 360,000) | activity change, % (test concentration not listed) | Q15475+O00167; in the data active = activity change below about -65%; inconclusive = about -30% to -65%; inactive = above about -30%; further: on the % scale 0 is the no-effect control and ±100 the full control effect
# Target sequence (O00167 whole entry, looked up): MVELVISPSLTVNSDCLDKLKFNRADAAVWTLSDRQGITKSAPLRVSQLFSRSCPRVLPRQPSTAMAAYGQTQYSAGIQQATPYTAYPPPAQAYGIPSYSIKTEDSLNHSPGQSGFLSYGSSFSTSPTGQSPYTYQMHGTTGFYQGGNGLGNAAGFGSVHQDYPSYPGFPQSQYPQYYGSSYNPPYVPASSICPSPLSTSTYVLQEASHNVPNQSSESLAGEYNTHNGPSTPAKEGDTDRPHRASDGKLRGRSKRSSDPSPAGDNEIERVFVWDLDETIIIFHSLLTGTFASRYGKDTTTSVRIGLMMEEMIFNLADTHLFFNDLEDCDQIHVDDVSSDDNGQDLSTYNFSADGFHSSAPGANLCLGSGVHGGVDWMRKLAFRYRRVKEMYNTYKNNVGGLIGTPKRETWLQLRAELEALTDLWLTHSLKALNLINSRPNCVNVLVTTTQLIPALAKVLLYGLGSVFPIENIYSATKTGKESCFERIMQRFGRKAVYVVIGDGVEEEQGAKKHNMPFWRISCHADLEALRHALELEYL
# Target sequence (Q15475 whole entry, looked up): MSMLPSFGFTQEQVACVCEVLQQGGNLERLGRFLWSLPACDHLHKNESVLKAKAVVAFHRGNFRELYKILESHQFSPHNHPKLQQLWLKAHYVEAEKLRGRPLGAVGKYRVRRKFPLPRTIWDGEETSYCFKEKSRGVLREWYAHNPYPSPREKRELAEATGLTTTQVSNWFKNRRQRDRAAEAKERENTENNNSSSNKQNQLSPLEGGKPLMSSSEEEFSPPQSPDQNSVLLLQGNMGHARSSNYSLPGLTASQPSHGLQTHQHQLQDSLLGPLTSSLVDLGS
#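 Six1/Eya2 binding was read as AlphaScreen signal after compounds were pinned into GST-Six1 plus His-tagged Eya2 (5X stock 250/500 nM) in pH 8.0 Tris/NaCl/TCEP buffer, beads added, then incubated 1 h, 37 C, dark.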
# TRPML1 ag: agonists of human TRPML1 channel; TRPML1-expressing cells, Ca2+ dye fluorescence, FDSS; host cell line not named in the record; reference of the full effect not given here; actives 0.12% (n = 410,000); activation, % (no concentration beside the values); in the data active = activation above about 50%; inconclusive = about 30% to 50%; inactive = below about 30%; further: 0% is about no effect; the text of the record puts the active cut at 80%
#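 Cells: TRPML1-DL, 1X Tet inducer, ~16 h at 37 degrees C/5% CO2. Dye: ABD Ca8 no-wash + quencher, 45-90 min RT. Read: 10 s baseline, compound add, 110 s agonist phase; 54-4 EC80 (4uM final), 110 s antagonist phase.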
# * hit, by the source's call; ? = inconclusive; / = no result given.
entry	SMILES	TRPML1 inh	D2 potentiator	TRPV1 PAM
1	O=C(CCC1CCCC1)Nc1ccc([N+](=O)[O-])cn1	13	-24	0
2	COc1ccc(C(=O)O/N=C(/c2ccccc2)c2ccncc2)cc1OC	-23	24	-1
3	COC(=O)[C@@]1(Cc2ccc(F)cc2)[C@H]2c3cc(C(=O)N(C)C)n(CCN4CCOCC4)c3C[C@H]2CN1C(=O)c1ccccc1	/	/	/
4	CC(C)CC1(C)NC(=O)N(CC(=O)Nc2cccc(S(=O)(=O)N(C)c3ccccc3)c2)C1=O (stereo unspecified)	-9	-2	2
5	CN(C(=O)COC(=O)c1cc(=O)[nH]c2ccccc12)c1c(N)n(Cc2ccccc2)c(=O)[nH]c1=O	1	8	-6
6	COc1ccccc1CNC(=O)c1oc2ccc(S(=O)(=O)N3CCCC3)cc2c1C	?	2	7
7	COc1ccc(C(=S)N2CCCCC2)cc1Br	-6	4	7
8	O=C(NCCSc1c[nH]c2ccccc12)c1ccco1	0	-6	-14
9	CC(=O)c1ccc2c3c(cc(C)c2c1)CCCC3	15	-3	/
10	O=C(NCC(c1ccco1)N1CCc2ccccc2C1)c1ccc(Cl)cc1 (stereo unspecified)	5	-39	-11

entry	CtBP-E1A blk	Six1-Eya2 blk	TRPML1 ag
1	-1	-8	0.9
2	-4	-1	-0.9
3	0	-6	0.5
4	-5	1	-0.8
5	7	-3	0.2
6	-7	-16	0.9
7	-9	-17	-0.9
8	-2	0	-0.7
9	34	5	-0.8
10	-1	-1	1.7

entry	SMILES	TRPML1 inh	D2 potentiator	TRPV1 PAM
11	CCOc1cc(C)c(C(C)C)cc1S(=O)(=O)NCc1ccccn1	-7	6	-22
12	CCN(CC)c1ccc(S(=O)(=O)N2CCOCC2)cc1NC(=O)Nc1ccccc1	2	-22	/
13	CC(=O)C1=C(C)NC(SCC(=O)c2ccc(Cl)cc2)=C(C#N)C1c1ccco1 (stereo unspecified)	36	-15	-4
14	CC(=O)C1=C(O)C(=O)N(Cc2cccnc2)C1c1ccccc1 (stereo unspecified)	1	3	-38
15	c1ccc(N2CCN(c3nc(-c4cccs4)nc4ccccc34)CC2)cc1	33	-7	6
16	Cn1ccs/c1=N\C(=O)Nc1cccc(C(F)(F)F)c1	-4	-7	-7
17	CC(C)/C=N/NC(=O)c1cc(Br)ccc1O	17	3	13
18	CC(C)C1C(=O)N(Cc2cn(CCC3OCCO3)nn2)CCS(=O)(=O)N1Cc1ccc(-c2ccc(F)cc2)cc1 (stereo unspecified)	-5	-4	/
19	O=C(CN(C1CCCCC1)S(=O)(=O)c1ccc(F)cc1)NCc1ccncc1	8	-4	-18
20	CCN(CC)C(=O)c1ccc2nc([C@@H]3O[C@H](CO)[C@H](O)[C@H](O)[C@H]3O)[nH]c2c1	0	-13	/

entry	CtBP-E1A blk	Six1-Eya2 blk	TRPML1 ag
11	-2	0	-0.5
12	-5	-16	0.9
13	-13	0	2.4
14	10	0	0.2
15	2	-3	1.0
16	-16	-4	-0.1
17	2	2	0.0
18	-1	7	-0.4
19	6	5	-1.1
20	3	-1	0.1

# Overlap with the part before: 3 entries; new compounds follow.
entry	SMILES	TRPML1 inh	D2 potentiator	TRPV1 PAM
18	CC(C)C1C(=O)N(Cc2cn(CCC3OCCO3)nn2)CCS(=O)(=O)N1Cc1ccc(-c2ccc(F)cc2)cc1 (stereo unspecified)	-5	-4	/
19	O=C(CN(C1CCCCC1)S(=O)(=O)c1ccc(F)cc1)NCc1ccncc1	8	-4	-18
20	CCN(CC)C(=O)c1ccc2nc([C@@H]3O[C@H](CO)[C@H](O)[C@H](O)[C@H]3O)[nH]c2c1	0	-13	/
21	Cc1ccc(NC2=C(Cl)C(=O)N(C3CCCCC3)C2=O)cc1	12	-9	-15
22	O=C(Nc1cc2c3c(c1)CC(=O)N3CCC2)c1ccc(F)cc1	1	-14	5
23	CCOC(=O)N1CCc2c(sc3c2C(=O)NC(c2ccccc2)N3)C1 (stereo unspecified)	-5	6	2
24	COc1cc(C(=O)Nc2ccc(S(=O)(=O)Nc3nccc(C)n3)cc2)c([N+](=O)[O-])cc1OC	-2	-3	-5
25	CCc1ccc2ncc(S(=O)(=O)c3ccc(C)c(C)c3)c(N3CCCC3)c2c1	1	-18	8
26	Nc1ncnc2c1ncn2[C@@H]1O[C@H](CNC(=O)[C@H](N)Cc2cccnc2)[C@@H](O)[C@H]1O	-7	-6	/
27	COc1ccc(Cl)cc1S(=O)(=O)N1CCC(C(=O)NCc2ccco2)CC1	18	-4	-1
28	COc1ccc(S(=O)(=O)N2CCCCC2)cc1NS(=O)(=O)c1ccccc1F	-7	-34	-1
29	CCCCCN(C(=O)CCC(=O)OCC(=O)c1ccc(F)c(F)c1)c1c(N)n(CCCC)c(=O)[nH]c1=O	-10	13	4
30	CC1(C(=O)NS(=O)(=O)c2ccc(F)cc2F)CCN1C(=O)Cc1ccccc1 (stereo unspecified)	/	-5	/

entry	CtBP-E1A blk	Six1-Eya2 blk	TRPML1 ag
18	-1	7	-0.4
19	6	5	-1.1
20	3	-1	0.1
21	16	-15	0.0
22	-12	-16	-0.2
23	-15	-9	-1.2
24	2	9	0.4
25	-3	1	0.3
26	2	6	-0.3
27	-7	-1	0.5
28	19	3	1.1
29	7	1	0.1
30	11	6	-0.3

entry	SMILES	TRPML1 inh	D2 potentiator	TRPV1 PAM
31	COc1ccc(CCc2ccnc3ccccc23)cc1	2	-1	/
32	COc1ccc(OC)c(S(=O)(=O)Nc2ccccc2O)c1	1	-7	/
33	Cn1cnc(S(=O)(=O)Nc2cc(-c3ccc(Cl)cc3)nn2C)c1	-16	-2	7
34	Cc1cc(O)c(C(=O)/C=C/c2ccc(C(C)C)cc2)c(=O)o1	-17	2	6
35	O=C(COC(=O)c1ccc(O)cc1)Nc1ccc(N2CCCCC2)cc1	3	6	-14
36	Cc1cccc(C)c1NCC(=O)N1CCN(Cc2ccccc2)CC1	-9	-13	14
37	O=C(Cc1ccccc1F)Nc1cc(S(=O)(=O)N2CCOCC2)ccc1N1CCCC1	6	-6	/
38	Cc1cnc(C(=O)OCC(=O)c2ccc(Cl)cc2)cn1	10	-9	1
39	CC(=O)N1c2ccccc2Sc2ccc3ccccc3c21	6	-3	/
40	CN(C(=O)c1ccc(NC(=O)C2CCN(C(=O)OC(C)(C)C)CC2)cc1)C1CC1	4	-16	/

entry	CtBP-E1A blk	Six1-Eya2 blk	TRPML1 ag
31	11	-1	0.6
32	0	-6	0.3
33	-3	0	1.5
34	6	3	0.6
35	-6	-26	-1.0
36	4	2	-0.4
37	-2	-1	-0.3
38	-1	0	0.1
39	5	-6	0.2
40	-11	-9	-0.5

entry	SMILES	TRPML1 inh	D2 potentiator	TRPV1 PAM
41	CCn1cc(S(=O)(=O)Nc2ncccn2)cn1	-2	-12	1
42	O=C(Nc1ccc(N2CCCC2)c(Cl)c1)c1ccc([N+](=O)[O-])o1	-16	8	?
43	CC(C)(C)c1ccc(S(=O)(=O)N2CCN(CC(O)CN3CCOCC3)CC2)cc1 (stereo unspecified)	14	-7	/
44	Cc1cc(-c2csc(NC(=O)c3ccc(=O)[nH]c3)n2)c(C)n1Cc1ccco1	2	-6	-2
45	COc1cc(SC)ccc1C(=O)N(Cc1ccccc1)c1ccccc1	0	-23	0
46	CCOC(=O)c1nc(C)c(C(C)=O)s1	0	-12	-4
47	CCCNC(=O)c1ccccc1SCc1c(C)noc1C	37	2	?
48	CC(OC(=O)CC1CCCCC1)C(=O)Nc1cccc(C#N)c1 (stereo unspecified)	0	-16	7
49	O=S(=O)(NC1CCCCCCC1)c1cccs1	36	1	-1
50	OC(CN1CCOCC1)(c1ccccc1)c1ccccn1 (stereo unspecified)	15	-8	-6

entry	CtBP-E1A blk	Six1-Eya2 blk	TRPML1 ag
41	-7	3	0.6
42	-22	-19	2.6
43	-12	-1	0.4
44	-2	0	-0.5
45	-14	0	2.9
46	6	0	-0.3
47	6	1	0.0
48	-2	16	0.2
49	8	7	1.8
50	2	2	-0.8

entry	SMILES	TRPML1 inh	D2 potentiator	TRPV1 PAM
51	O=C(NCc1ccco1)C1OCCc2ccccc21 (stereo unspecified)	-12	0	10
52	COC(=O)[C@]1(Cc2ccccc2)N[C@H](c2ccc(-c3ccc(F)cc3)cc2)[C@@H]2C(=O)N(C)C(=O)[C@@H]21	10	-7	-23
53	O=S(=O)(Nc1ccccc1N1CCOCC1)c1cccs1	1	-6	/
54	COc1ccc([C@H]2CC(=O)C=C(c3cccc(C(C)C)c3)C2)cc1OC	34	4	-5
55	O=C(Nc1cccnc1)c1ccc2c(c1)C(=O)N(CC1CCCO1)C2=O (stereo unspecified)	-9	1	6
56	CNC(=O)C[C@H]1C(=O)N(C2CCCCC2)C[C@@H]1c1ccc(Br)cc1	-7	-1	/
57	CC1CCCCC1NS(=O)(=O)c1ccc(S(=O)(=O)NCc2ccncc2)cc1 (stereo unspecified)	2	-3	-3
58	CC(Sc1nnc2c(n1)[nH]c1ccccc12)C(=O)NC1CCCCC1 (stereo unspecified)	16	-1	-2
59	Cc1ccc(-n2nc3c(c2NC(=O)c2ccc(Br)o2)CSC3)c(C)c1	-10	-1	-15
60	COc1ccccc1-c1cc(N)n(S(=O)(=O)c2ccc(F)c(C)c2)n1	-11	-3	3

entry	CtBP-E1A blk	Six1-Eya2 blk	TRPML1 ag
51	-2	3	-0.9
52	-9	-12	0.4
53	1	3	0.9
54	-11	-12	0.0
55	2	5	0.1
56	-4	5	0.0
57	3	6	0.1
58	-11	-21	2.8
59	8	-2	-0.7
60	0	-4	-0.2

# Two entries from above in another layout.
entry | molecule | TRPML1 inh | D2 potentiator | TRPV1 PAM | CtBP-E1A blk | Six1-Eya2 blk | TRPML1 ag
56 | CNC(=O)C[C@H]1C(=O)N(C2CCCCC2)C[C@@H]1c1ccc(Br)cc1 | -7 | -1 | / | -4 | 5 | 0.0
57 | CC1CCCCC1NS(=O)(=O)c1ccc(S(=O)(=O)NCc2ccncc2)cc1 (stereo unspecified) | 2 | -3 | -3 | 3 | 6 | 0.1

# Continued:
entry	SMILES	TRPML1 inh	D2 potentiator	TRPV1 PAM
61	CCOC(=O)/C(C#N)=N/Nc1ccc(S(=O)(=O)Nc2cc(OC)nc(OC)n2)cc1	11	-9	/
62	CCCC(=O)N1CCC1(C)C(=O)Nc1cc(C)ccc1C (stereo unspecified)	/	-6	/
63	Cc1cnc(CN(C)C(=O)C2CCC(=O)N(CCc3ccc(Cl)cc3)C2)[nH]1 (stereo unspecified)	32	-10	/
64	CCOc1ccccc1Nc1nc(N)nc(Cl)c1CC	7	-5	/
65	CCc1nc2c(OCC(=O)C(C)(C)C)cccn2c1N(C)C(=O)C(C)C	/	-9	/
66	CCOC1=C2[C@H](c3ccc(CC)cc3)N(S(=O)(=O)c3ccc(C)cc3)C[C@H]2n2c(=O)n(-c3ccccc3)c(=O)n2C1	-1	1	/
67	CNS(=O)(=O)c1ccc(NC(=O)c2cncc(Br)c2)cc1	-5	2	1
68	Cc1nn(CC(=O)Nc2ccc(C(=O)N(C)C)cc2)c(=O)c2ccccc12	-4	7	7

entry	CtBP-E1A blk	Six1-Eya2 blk	TRPML1 ag
61	-11	-14	4.3
62	3	1	-0.4
63	7	8	0.1
64	4	1	0.4
65	0	11	0.8
66	9	9	-0.4
67	-3	-3	1.4
68	8	-2	-0.7
